Menin MLL FP FL = displaces fluorescein MLL peptide from human menin; Fluorescence polarization, fluorescein-MLL peptide displacement from menin; FP activity change, % at 61.4 µM; 290,000 tested, under 10 active; inconclusive = falling polarisation curve, or a change in total fluorescence; inactive = total fluorescence flat and polarisation flat or rising; no compound was filed as active; the % refers to the polarisation; negative = inhibition;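 note: % of control where 0% means no effect; inhibitors lower the polarisation; unlabelled MLL peptide was the positive control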
TRPV1 PAM = human TRPV1 potentiation; AID 540277; Q8NER1; 320,000 compounds, 0.02% hits; potentiation, % at 8.33 µM; TRPV1-expressing cells, Fluo-8 calcium influx, capsaicin EC20 potentiation; host cell line not named in the record; control for the full effect not named in the record; active means potentiation above 80%; inconclusive means 30% to 80%; inactive means below 30%; note: 0% is about no effect
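Fluo-8 calcium influx in TRPV1-expressing cells, kinetic read (ex 480/em 520 nm). Compound added and read 3 min for agonist activity, followed by capsaicin at EC20 final and 2 min further read for enhancement.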
TRPML1 agonist = human mucolipin-1 channel agonism; Q9GZU1; TRPML1-expressing cells, Ca2+ dye fluorescence, FDSS; host cell line not named in the record; reference of the full effect not given here; activation, % (concentration not given with the values); 410,000 compounds, 0.12% hits; in the data active = activation above about 50%; inconclusive = about 30% to 50%; inactive = below about 30%; note: 0% is about no effect; the text of the record puts the active cut at 80%
Target sequence (Q9GZU1 whole entry, looked up): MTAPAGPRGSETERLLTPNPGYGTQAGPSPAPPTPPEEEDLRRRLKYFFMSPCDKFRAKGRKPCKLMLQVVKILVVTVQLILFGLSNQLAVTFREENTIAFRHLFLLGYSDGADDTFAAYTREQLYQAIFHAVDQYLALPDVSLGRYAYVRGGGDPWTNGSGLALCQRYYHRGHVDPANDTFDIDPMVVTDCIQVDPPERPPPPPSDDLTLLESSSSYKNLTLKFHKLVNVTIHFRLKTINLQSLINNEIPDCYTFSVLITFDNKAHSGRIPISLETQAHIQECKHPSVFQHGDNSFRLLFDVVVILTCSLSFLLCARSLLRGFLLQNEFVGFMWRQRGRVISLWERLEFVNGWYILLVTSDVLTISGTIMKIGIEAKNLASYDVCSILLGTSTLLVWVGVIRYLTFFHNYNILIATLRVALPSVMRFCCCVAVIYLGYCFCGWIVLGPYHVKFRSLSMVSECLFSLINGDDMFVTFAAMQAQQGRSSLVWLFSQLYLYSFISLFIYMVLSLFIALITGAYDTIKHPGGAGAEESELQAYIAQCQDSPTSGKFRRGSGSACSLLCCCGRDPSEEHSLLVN
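Calcium fluorescence on an FDSS kinetic reader gave the read-out. Tet-induced TRPML1-DL cells were plated overnight, dye-loaded (Ca8 with quencher, 45-90 min, room temperature, dark), then read 110 s after compound addition, and again 110 s after 4uM final 54-4 (EC80).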
Sfp PPTase inh = Sfp phosphopantetheinyl transferase inhibition | Q9F4F7 | Biochemical Sfp PPTase activity, qHTS | Potency, µM, for inactives: max response, negative = inhibition, most hits filed as inhibitors | 310,000 compounds, 3.5% hits | AID 1490; active = well fitted inhibition curve with a large enough effect; inconclusive = small, poorly fitted or top-dose-only effect, or another doubt; inactive = no such curve, though single readings can be large or run the other way;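 note: the enzyme is Sfp with the accession as filed and its product quenches rhodamine fluorescence; potency is the fitted concentration of half-maximal effect; 0% = enzyme reaction without inhibitor and -100% = no enzyme wells; top concentration of the series not given in the record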
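Step 1, compound plus 15 nM Sfp-PPTase, 15 min, room temperature. Step 2, add rhodamine-CoA (5 uM) and BHQ-2-YbbR (12.5 uM). Step 3, read 525/598 nm fluorescence at 0 and 30 min.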
PINK1 expr mod = modulators of PINK1 expression | PINK1 immunofluorescence, high-content cytometry, 24 h | Potency, µM (titrated, usually from 76.6 µM), for the others: at the top dose activation (PINK1 increase), usual class: activators | 410,000 compounds, 0.2% hits; active = well fitted activation curve with a large enough effect; inconclusive = small, poorly fitted or top-dose-only effect; inactive = flat fitted curve, though single readings scatter; cell line not stated here;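 note: potency is the fitted concentration of half-maximal effect; % of control where 0% means no effect; nearly all actives have a fitted effect of over 65% in size; a mitochondrial uncoupler was the plate control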
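PINK1 protein, normally rapidly degraded, was detected by immunofluorescence after 24 hour compound treatment of a stable cell line. Titration data (5 concentrations) came from laser-scanning cytometry, with CCCP-treated wells as controls.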
ClpP mod = qHTS Assay for Activators of ClpP. purified B. subtilis ClpP, FRET peptide cleavage, 20 min. 340,000 compounds, 1.9% hits. ATP-dependent Clp protease proteolytic subunit (Bacillus subtilis (strain 168)), P80244. AID 651965, 2013. Potency, µM (top dose mostly 57.5 µM), inactives show at the highest dose activity change, negative = active; active = well fitted falling curve with a large enough effect; inconclusive = small, poorly fitted or top-dose-only effect; inactive = no such curve, though single readings can be large or run the other way; note: potency is the fitted concentration of half-maximal effect; the source files actives as falling curves though it sought activators and does not explain the sign; nearly all actives have a fitted effect of over 65% in size; many hits overshoot -100%
Target sequence (P80244 whole entry, looked up): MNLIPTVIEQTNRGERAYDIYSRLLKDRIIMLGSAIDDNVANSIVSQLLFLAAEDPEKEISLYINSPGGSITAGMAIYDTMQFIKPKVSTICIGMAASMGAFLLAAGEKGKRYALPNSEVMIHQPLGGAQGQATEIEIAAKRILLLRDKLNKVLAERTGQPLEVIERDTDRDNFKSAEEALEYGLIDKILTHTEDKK
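Buffer: 100 mM Tris/HCl pH8, 100 mM KCl, 0.05% low protease BSA, 2.5% glycerol, 0.01% Tween-20. ClpP 10 microg/mL final; 20 min RT; delta FRET normalized to ADEP and DMSO controls.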
TRPML1 inh = human mucolipin-1 channel inhibition; activity change, negative = inhibition, % (test concentration not listed); 390,000 compounds, 0.02% hits; TRPML1-inducible cells, Ca2+ dye fluorescence, FDSS; stronger effect = lower value; inhibition of EC80 agonist-evoked calcium signal; Q9GZU1; in the data active means activity change below about -50%; inconclusive means about -30% to -50%; inactive means above about -30%;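 note: stimulus is agonist 54-4 at its EC80 concentration; % is set by controls: 0 for no effect and ±100 for the full control effect; compound concentration not given in the record; the text of the record puts the active cut at -80%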
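TRPML1-DL cells, Tet-induced overnight (~16 h, 37 °C) at 1,500 cells/well, were loaded with Ca8 no-wash dye plus quencher for 45-90 min at room temperature. Compounds were pinned during FDSS kinetic reading; agonist 54-4 at EC80 (4 uM final) then added.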
* = called active by the depositor; ? = inconclusive; nt = not tested or not shown; [ ] = another dose, or the depositor's remark.

SMILES	Menin MLL FP FL	TRPV1 PAM	TRPML1 agonist	Sfp PPTase inh	PINK1 expr mod	ClpP mod	TRPML1 inh
COc1ccccc1-c1cncnc1N1CCN(C)CC1	-22	nt	nt	-11%	-1.0%	nt	nt
COc1ccc(C(=O)Oc2ccc(/C=N/NC(=O)Cc3ccc([N+](=O)[O-])cc3)cc2)cc1	6.3	1	-0.3	0%	-2.3%	2.5%	3
COc1c(Cl)cc(-c2noc(C)c2C(=O)NCc2ccccc2)cc1Cl	2.8	-10	0.5	-2%	4.4%	0.0%	-9
COc1cccc(C(=O)n2c(SC)nc3cc4c(cc32)OCCO4)c1	0.5	-11	1.8	-3%	-4.9%[38.3 µM]	10.0%	-2
CN(C)CCn1c(=S)[nH]c2ncccc2c1=O	-2.5	-20	1.3	50µM*	0.9%	nt	-10
Cc1ccc(OCCn2c(CCNC(=O)C3CCCCC3)nc3ccccc32)cc1	nt	-7	3.0	nt	0.1%	nt	-1
Cc1cc2c3c(c1C)C(=O)C(=O)N3C(C)(C)CC2C (centres undefined)	-6.3	-6	2.9	17%	0.9%	1.0%	-1
CCCCn1c(N)c(N(CCC(C)C)C(=O)COC(=O)c2cccnc2SC)c(=O)[nH]c1=O	nt	-1	-0.2	nt	-0.3%	1.0%	-14
CCn1nc(C(C)C)cc1C(=O)N1CCCC(CO)(Cc2ccc(F)cc2F)C1 (centres undefined)	nt	25	2.3	7%	0.7%	-5.0%	18
O=C(CC1C(=O)NCCN1CCCc1ccccc1)NCCc1ccccc1Cl (centres undefined)	nt	4	0.4	2%	-0.1%	-5.5%	8
Cc1cc(=O)oc2cc(OCC(=O)NCCCN3CCCC3=O)c(Cl)cc12	nt	18	0.1	14%	0.1%	3.7%	-20
CC(=O)/C(=C\c1ccccc1)CC(=O)O	-6.4	nt	nt	23%	-1.4%	nt	nt
CCCSc1nc2c(c(=O)[nH]c(=O)n2C)n1C	0.4	-34	-0.8	5%	-2.4%	-1.2%	13
CCOC(=O)C(C)Sc1nc(-c2ccccc2Cl)cc(-c2ccccc2)c1C#N (centres undefined)	nt	nt	0.3	nt	0.4%	-20%	37
O=C(Nc1cccc(F)c1)N1CCC2(CC1)CCN(C(=O)c1cnccn1)CC2	0.7	nt	nt	13%	-0.5%	nt	nt
Cc1noc(C)c1S(=O)(=O)N1CCC(C(=O)NCCC2=CCCCC2)CC1	0.8	0	1.4	12%	-1.1%	-2.5%	1
O=C(CSc1ncc(S(=O)(=O)c2ccc(Br)cc2)c(=O)[nH]1)NCc1ccccc1Cl	nt	nt	-1.3	nt	0.3%	-4.2%	1
O=C(c1ccccc1)N1CCN(C(=O)C23CC4CC(CC(C4)C2)C3)CC1	2.2	-25	0.8	11%	-2.1%	-0.1%	19
CCOC(=O)c1sc(=NC(=O)/C=C/c2cccs2)n(C)c1C	0.2	-3	0.4	11%	-0.9%	nt	-6
O=C(Nc1ccccc1N1CCCCC1)c1ccc([N+](=O)[O-])o1	nt	2	0.2	nt	2.5%	-0.8%	19
Cc1onc(-c2c(F)cccc2Cl)c1C(=O)NCCc1ccc(S(N)(=O)=O)cc1	0.6	20	1.7	-3%	0.1%[38.3 µM]	-2.3%	17
Cc1c(Br)c(C(F)(F)F)nn1CC(=O)NCCN1CCOCC1	0.3	7	0.0	-1%	-1.6%[38.3 µM]	-0.1%	-2
Cc1ccc(S(=O)(=O)N(C)C2(C)CCS(=O)(=O)C2)cc1 (centres undefined)	1.9	9	-0.1	15%	-1.1%[38.3 µM]	-2.0%	-28
COc1ccc(N2Cc3cccc(C(=O)N4CCOCC4)c3C2=O)cc1	3.1	-6	0.0	16%	-0.8%	-0.6%	33
COc1ccc([C@H]2CC(=O)C=C(c3cccc(C#N)c3)C2)cc1	nt	-9	3.8	nt	-0.1%	0.3%	4
(next part)
SMILES	Menin MLL FP FL	TRPV1 PAM	TRPML1 agonist	Sfp PPTase inh	PINK1 expr mod	ClpP mod	TRPML1 inh
c1ccc(Cn2nnnc2CN2CCOCC2)cc1	0.2	2	0.0	8%	-1.1%	1.2%	-5
CCCOc1ccc(C(=O)NNC(=S)NC(=O)c2cccs2)cc1	1.1	4	53*	28%	3.3%	nt	-7
FC(F)(F)c1ccc(Cl)c(NC2=NCCCCC2)c1	-8.3	-18	0.0	10%	1.4%	nt	-13
N#Cc1ccccc1S(=O)(=O)N1CCN(Cc2cccs2)CC1	nt	nt	-0.7	nt	1.5%	-0.8%	7
COc1cc(C(=O)OCC(=O)Nc2c(F)c(F)c(F)c(F)c2F)cc(OC)c1OC	-2.5	-19	-0.2	19%	-0.3%	-5.8%	-1
O=C(NC1CCCC1)C(NS(=O)(=O)c1cccc2nsnc12)c1ccccc1 (centres undefined)	4.1	1	0.3	19%	-1.7%	-3.1%	-10
CC(=O)c1c(C)[nH]c(C(=O)NCc2cccs2)c1C	2.4	-6	-0.8	-16%	-0.1%	-3.0%	1
COc1cc(Cn2c3ccc(NC(=O)CC(C)c4ccccc4)cc3c(=O)n2C)ccc1F (centres undefined)	nt	nt	-0.7	nt	2.0%	4.5%	12
Cc1cc(Cl)c(S(N)(=O)=O)cc1OCC(N)=O	0.9	4	0.0	13%	0.2%	0.5%	-15
COc1cccc(CNC(=O)CN2C(=O)NC(c3ccccc3)(c3ccccc3)C2=O)c1	nt	10	0.7	nt	-2.4%	nt	-5
Clc1ccc(-c2csc(N3CCC(c4ccccc4)C3)n2)cc1 (centres undefined)	1.8	9	0.5	2%	2.2%	-1.1%	2
O=C(O)c1cccnc1SCc1ccccc1Cl	-0.4	19	0.8	-3%	4.9%	nt	30
Cc1cccc(CCN(C(=O)Cc2cccs2)C(C(=O)NC2CCCCC2)c2cccnc2)c1 (centres undefined)	0.2	-4	2.9	13%	6.7%	-5.5%	34
COc1ccccc1-c1ccc(SCc2ccccc2F)nn1	3.8	12	-0.5	10%	0.9%	nt	-18
Cc1cccc(NC(=O)CSc2nnc(C)c(=O)n2N)c1	-1.7	26	-0.1	-5%	3.3%	nt	-4
NCCCCC(N)C(=O)NC(Cc1ccc(O)cc1)C(=O)NC(CCCCN)C(=O)O (centres undefined)	-0.9	nt	nt	12%	0.5%	nt	nt
CSC1=N/C(=C\c2ccccc2C)C(=O)S1	-0.6	13	0.6	?	2.2%	-5.1%	-4
CN(Cc1c(F)cccc1Cl)C(=O)c1cccc(S(=O)(=O)N2CCN(Cc3ccccc3)CC2)c1	nt	nt	2.7	nt	-0.5%	-3.6%	6
Cn1c(=O)c(-c2cccc(Cl)c2)c(O)c2ccccc21	nt	nt	0.6	nt	1.2%	0.2%	10
CCN(c1ccccc1)S(=O)(=O)c1cccc(C(=O)Nc2ccc(C)cn2)c1	nt	-18	1.2	8%	2.1%	-0.4%	6
Cn1c2c(c(=O)n(C)c1=O)CN(CC1CCCO1)CN2 (centres undefined)	3.8	8	-0.6	1%	1.1%	-0.5%	13
O=C1N/C(=C/c2ccc(N3CCOCC3)cc2)C(=O)N1Cc1ccc(F)cc1	7.1	-4	1.2	10%	?	2.2%	0
CC1(C)CC(=O)C=C(c2ccc(COC(=O)c3ccc(-c4ccccc4)cc3)cc2)C1=O	nt	nt	0.9	nt	4.5%	0.6%	4
Cc1ccc(Sc2ncccc2[N+](=O)[O-])cc1	-2.6	-2	2.2	4%	4.5%	nt	43
COCCNC(=O)CN(c1cc(C(F)(F)F)ccc1Cl)S(C)(=O)=O	2.3	-6	2.0	-1%	4.8%[38.3 µM]	0.6%	4
Following part
SMILES	Menin MLL FP FL	TRPV1 PAM	TRPML1 agonist	Sfp PPTase inh	PINK1 expr mod	ClpP mod	TRPML1 inh
COc1ccccc1C(=O)COC(=O)C1CCN(S(=O)(=O)c2ccc(C)c(C)c2)CC1	nt	-1	-0.3	nt	1.5%	-1.8%	-10
Cc1ccc(C(CC(=O)N2CCNCC2)c2ccccc2)c(O)c1C (centres undefined)	1.2	19	2.4	10%	0.9%	-2.9%	1
COc1cc(NC(=O)c2ccc([N+](=O)[O-])cc2)ccc1NC(=O)C(C)C	1.3	-4	0.7	13%	24%	nt	-4
[O-]C1=N/[N+](=C/c2ccc(Cl)c(Cl)c2)CC1	0.3	-4	0.2	-16%	3.3%	-0.6%	-15
Cc1ccccc1-n1nc(CO)c(C(=O)NCc2cccs2)n1	nt	nt	3.0	nt	-0.4%	-2.1%	-19
CN(C(=O)CSc1nc2cc(Cl)ccc2c(=O)n1Cc1ccco1)C1CCS(=O)(=O)C1 (centres undefined)	-2.6	-9	-0.2	-13%	-1.9%	nt	8
COC(=O)CCN1CCC(c2cc(-c3cccc(C(F)(F)F)c3)n[nH]2)CC1	-0.1	-27	-0.1	-13%	6.7%	nt	34
COc1cccc(NC(=O)CC(C)=O)c1	-1.8	-5	0.6	-8%	2.3%	-3.2%	17
Cc1cc(C)cc(N(CC(=O)N2CCn3c2nc2ccccc23)S(=O)(=O)c2c(C)noc2C)c1	0.0	-14	0.0	3%	0.0%	0.8%	-1
COc1ccc(NC(=O)CN(C)CC(=O)Nc2cccc3ccccc23)c(OC)c1	nt	4	-1.0	nt	1.2%	?	7
CCCNC(=O)COC(=O)c1cc(-c2ccc(OC)cc2)nc2ccccc12	5.0	-19	0.6	20%	15%	-1.4%	-22
C=C(C)Cn1c2ccc(NC(=O)NCCc3cccs3)cc2c(=O)n1C	nt	nt	-0.7	nt	-0.2%	4.8%	nt
CC1CCN(C(=O)c2cc(Cl)ccc2NC(=O)c2ccco2)CC1	-1.1	-15	-0.4	9%	-0.4%	nt	-4
CC(C)n1c(=S)[nH]c2c1c(=O)[nH]c(=O)n2C	3.1	-5	-0.8	10µM*	1.5%	1.5%	7
CSc1ccc(Cl)c(C(=O)OCC(=O)N2CCN(c3ccccc3)CC2)c1	nt	11	1.9	nt	3.4%	-7.8%	75
Cc1ccn2c(NC(=O)c3ccco3)c(-c3ccccc3)nc2c1	0.1	-3	-0.1	12%	?	-0.4%	18
Cc1ccc(-n2nc3c(c2NC(=O)CCC2CCCCC2)CS(=O)C3)cc1 (centres undefined)	0.8	-9	-1.1	7%	3.9%	?	-21
Fc1ccccc1Nc1n[nH]c(=S)s1	-0.2	14	2.0	50µM*	0.9%	nt	27
